BmaI1 = BmaI1 acyl-homoserine lactone synthase inhibition – biochemical, fluorescence intensity, with counterscreen (AID 720554); BmaI1 enzyme assay, fluorescence intensity; active compounds read high; test concentration not given here; a few actives read low; strong numbers were not always called active; inhibition, %; 0.4% of 12,000 active;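 active = both replicates within 2 robust z-scores of the inhibited control and a quiet counterscreen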;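 also: 0% = uninhibited enzyme and 100% = inhibited control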
BmaI1 counterscreen = further read-out of BmaI1, marked with its call; inhibition, %; measured here: counterscreen; design of the counterscreen not given here;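 first of two replicates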
The depositor's hits bear a star. An excerpt; count on the stated rates, not on these rows.

Preview:
Fields: BmaI1 counterscreen | BmaI1
Cc1cccc2nc(CSc3nncn3-c3ccccc3F)cc(=O)n12
  11 | 17
CN(C)S(=O)(=O)c1cccc(C(=O)NC2CCCCCC2)c1
  6 | 11
CN(Cc1ccccc1)C(=O)COC(=O)c1cc(=O)c2ccccc2o1
  7 | 6
O=C(c1cnn(-c2ccccc2)n1)N1CCCSc2ccccc21
  -8 | 1
CC(C)[C@H](NC(=O)c1ccccc1)C(=O)N1CCN(c2ccccc2)CC1
  0 | 6
O=C(CCCn1c(=O)oc2ccccc21)Nc1cccnc1
  12 | 16
COc1ccc(C)cc1CC(=O)O
  -4 | 20

Results, from the start:
Fields: BmaI1 counterscreen | BmaI1
Cc1cccc2nc(CSc3nncn3-c3ccccc3F)cc(=O)n12
  11 | 17
CN(C)S(=O)(=O)c1cccc(C(=O)NC2CCCCCC2)c1
  6 | 11
CN(Cc1ccccc1)C(=O)COC(=O)c1cc(=O)c2ccccc2o1
  7 | 6
O=C(c1cnn(-c2ccccc2)n1)N1CCCSc2ccccc21
  -8 | 1
CC(C)[C@H](NC(=O)c1ccccc1)C(=O)N1CCN(c2ccccc2)CC1
  0 | 6
O=C(CCCn1c(=O)oc2ccccc21)Nc1cccnc1
  12 | 16
COc1ccc(C)cc1CC(=O)O
  -4 | 20
COc1ccc2oc(C(=O)NCCC(C)C)c(C)c2c1
  1 | 0
Clc1cccc(-c2cnc(CSc3nnc(C4CC4)n3-c3ccccc3)o2)c1
  4 | 12
CC1c2cccn2CCN1S(=O)(=O)c1ccccc1 (stereo not drawn)
  14 | 26
O=C(O)/C(=C\c1ccc(-c2ccc(F)cc2)o1)c1ccccc1
  11 | 30
O=C(COC(=O)Cc1c[nH]c2ccccc12)Nc1ccc(S(=O)(=O)N2CCCC2)cc1
  -2 | -5
CCCCn1c(=O)n(CC(=O)c2[nH]c(C)c(C(=O)OCC)c2C)c(=O)c2c1ncn2Cc1ccco1
  6 | 25
CC(=O)Nc1ccc(Br)c(OC(F)F)c1
  12 | 16
CCN(CC(=O)Nc1ccc(OC)cc1)Cc1nc2sc(C(=O)OC)c(C)c2c(=O)[nH]1
  -10 | 6
COCCn1c(C)cc(/C=N/n2c(-c3ccccc3C)n[nH]c2=S)c1C
  50 | 88
Cc1ccc(CN(C)CC(=O)Nc2ccc3c(c2)OCCCO3)cc1
  2 | 10
CCn1c(=O)c(=O)[nH]c2cc(C(=O)NCC(c3ccc(OC)cc3)N(C)C)ccc21 (stereo not drawn)
  4 | 4
CN1CCN(C(c2ccccn2)c2c(-c3ccccc3)n(O)c3ccccc23)CC1 (stereo not drawn)
  17* | 105*
Cc1c(-c2ccccc2)sc(NC(=O)C2CC(=O)N(Cc3ccco3)C2)c1C(=O)N1CCOCC1 (stereo not drawn)
  13 | 13
c1ccc(-n2ncc3c(OCc4nc5ccccc5s4)ncnc32)cc1
  -1 | 16
S=c1nn[nH]n1Cc1cccs1
  -2 | 26
Cc1nn(C)c(C)c1NS(=O)(=O)/C=C/c1ccccc1
  -2 | 0
CCCn1c(C)cc(/C=C(\C#N)C(=O)N(CC)c2nc3c(C)cccc3s2)c1C
  16 | 20
O=C(CSc1nc(-c2ccccc2)cs1)N1CCN(S(=O)(=O)c2ccccc2)CC1
  0 | 2
Cc1ccc(CN2CC(C(=O)NCc3ccc(S(N)(=O)=O)cc3)CC2=O)cc1 (stereo not drawn)
  4 | 2
O=C(CSc1ccc2ccccc2c1)NCCN1C(=O)CSC1=O
  -2 | 14
Cc1cc(C)n2nc(C(=O)OCc3cccc(S(=O)(=O)N(C)C)c3)nc2n1
  3 | 3
O=C(CSc1ncnc2sc3c(c12)CCCC3)N1CCCC1
  4 | 18
CCN(CC)CC#CCOC(=O)C(O)(c1ccccc1)C1CCCCC1 (stereo not drawn)
  8 | -4

Two of the compounds above, bar-delimited:
mol | BmaI1 counterscreen | BmaI1
Cc1ccc(CN(C)CC(=O)Nc2ccc3c(c2)OCCCO3)cc1 | 2 | 10
O=C(CSc1nc(-c2ccccc2)cs1)N1CCN(S(=O)(=O)c2ccccc2)CC1 | 0 | 2

The list goes on:
Fields: BmaI1 counterscreen | BmaI1
O=S(=O)(c1ccc(N2CCCC2)nc1)N1CCCC1
  14 | 9
O=C(Nc1ccc2c(c1)OCO2)c1ccccc1NC(=O)C1CC(=O)N(C2CCCC2)C1 (stereo not drawn)
  4 | 14
COc1cc(SC)ccc1C(=O)Nc1cccnc1
  60 | 35
CCn1c(CSc2nnc3ccccn23)nc2cc(S(=O)(=O)N(C)C)ccc21
  0 | 4
OC(CNCc1cn(-c2ccccc2)nc1-c1cccs1)CN1CCOCC1 (stereo not drawn)
  8 | 2
Cc1ccc(CNCCc2cccs2)s1
  0 | 3
Cc1cc(=O)oc2cc(OCC(=O)c3cccs3)ccc12
  -7 | 24
CNC(=O)c1sc(Nc2ccc(OC)cc2)nc1C
  24 | 52
COc1ccc(C(=O)OCC(=O)Nc2ccc(N(C)C)cc2)cc1
  -6 | 34
COC(=O)C(Cc1ccccc1)NC(=O)c1n[nH]c(=O)c2ccccc12 (stereo not drawn)
  12 | 14
CC(N=C1SCCN1C(=O)/C=C/c1ccco1)c1ccccc1 (stereo not drawn)
  2 | 16
CCOC(=O)c1oc2ccccc2c1COC(=O)c1cccc(-n2cnnn2)c1
  10 | 6
CN(C)S(=O)(=O)N=C1C=CC(=NS(=O)(=O)N(C)C)C=C1
  -24 | 88
O=C(CCCc1nc2ccccc2c(=O)[nH]1)Nc1ccc(F)c(Cl)c1
  4 | -24
O=C1CCN(C(=O)c2ccc(-c3nc4ccccc4s3)s2)CC1
  10 | 18
Cc1nnc(NC(=O)c2ccc3c(c2)SC2=NS(=O)(=O)CCN23)s1
  10 | 36
CCN(CC)S(=O)(=O)c1cccc(-c2n[nH]c(=S)n2-c2ccccc2)c1
  44 | 74
Cc1ccc(-n2c(O)c(C=Nc3ncnc4nc[nH]c34)c3ccccc3c2=O)cc1C
  38 | 6
COC(=O)c1cc(OC(=O)CCN2C(=O)C3CC=CCC3C2=O)cc(C(=O)OC)c1 (stereo not drawn)
  16 | 24
Cc1cc(C)c(NC(=O)/C=N/OCn2nnc3ccccc3c2=O)c(Cl)c1
  2 | 10
COc1ccc(OC)c(C2(O)CSC(=Nc3cccnc3)N2C2CC2)c1 (stereo not drawn)
  -3 | -2
N#CC(C(=O)c1cccc(N2C(=O)CCC2=O)c1)c1ccccn1 (stereo not drawn)
  11 | 37
CCS(=O)(=O)c1ccc2oc(SCC(=O)NCc3ccccc3)nc2c1
  4 | 8
O=C(Nc1nn2cnnc2s1)C12CC3CC(CC(O)(C3)C1)C2
  4 | -2
CC1CN(C(=O)CSc2ncc(C(F)(F)F)cc2Cl)CC(C)O1 (stereo not drawn)
  -6 | -5
COc1ccc(C2=CSC3=C(C(=O)c4cc(OC)c(OC)c(OC)c4)CCN23)cc1
  6 | 33
Cc1cc(C(=O)OC2CCOC2=O)c2ccccc2n1 (stereo not drawn)
  2 | 8
CCc1nn2c(=O)cc(CN3c4ccccc4CC3C)nc2s1 (stereo not drawn)
  -2 | 21
CCN(CC)S(=O)(=O)c1cccc(C(=O)OCc2cc(=O)n3cc(C)ccc3n2)c1
  4 | 12
COc1cc(NC(=O)CNCC(C)C)cc(OC)c1OC
  -3 | -1

The list continues.
Fields: BmaI1 counterscreen | BmaI1
CN1CCN(S(=O)(=O)c2ccc(N3CCN(c4ccccc4Cl)CC3)nc2)CC1
  10 | 12
NC(=O)C(C(=O)/C=C/c1ccc(F)cc1)=C1SCS1
  15 | 12
Cc1noc(C)c1CC(=O)N(Cc1ccccc1)c1nc2c(s1)CCCC2
  10 | 15
NS(=O)(=O)c1ccc(NC(=O)CN2CCCCCC2)cc1
  2 | 7
COc1cccc(C(N)=O)c1OCC(=O)N(C1CCCCC1)C1CCCCC1
  -10 | 10
CC(C)C(C(=O)O)n1c(=S)[nH]c2ccccc2c1=O (stereo not drawn)
  7 | 6
Cc1noc(C)c1CSc1ncccc1C(=O)Nc1ccnn1C(C)C1CC1 (stereo not drawn)
  10 | 48
CCn1nc(C(=O)N(C)Cc2ccc(OC(F)F)cc2)c2ccccc2c1=O
  11 | 14
CC(=O)CC(c1ccccc1)c1c(O)c2ccccc2oc1=O (stereo not drawn)
  1 | -2
O=c1[nH]c(CN2CCN(S(=O)(=O)c3ccccc3C(F)(F)F)CC2)nc2scc(-c3cccs3)c12
  6 | 12
CC1CC(C)CN(C(=O)CSc2nnc(-c3ccc4c(c3)OCO4)n2-c2ccccc2)C1 (stereo not drawn)
  5 | 2
CCOC(=O)C1=C(c2ccccc2)N2CCS(=O)(=O)N=C2S1
  0 | 10
Cc1ccc(C(=O)C2Sc3nnc(C)n3NC2c2ccc(Cl)cc2)cc1 (stereo not drawn)
  9 | 36
COc1ccccc1OCCNc1ncnc2sccc12
  -7 | -6
CCC(C)(C)NS(=O)(=O)c1ccccc1OC
  4 | 3
CC1Cc2ccccc2N1C(=O)CN1CCN(c2ccc(C(F)(F)F)cn2)CC1 (stereo not drawn)
  16 | 29
COc1ccc(-c2noc(COC(=O)c3cccc(OC(F)F)c3)n2)c(OC)c1
  -4 | 10
CNCCC(Oc1ccc(C(F)(F)F)cc1)c1ccccc1 (stereo not drawn)
  7 | -10
CC1=CC(=C(C#N)C#N)C=C(C)N1c1cccc(F)c1
  13 | 10
O=C(CSc1ncc(C(F)(F)F)cc1Cl)N1CCNC1=O
  11 | 28
O=C(OC1CCCC1)c1c(F)cccc1Cl
  0 | 0
CSCc1c(C(=O)Nc2ccccc2N2CCOCC2)oc2ccccc12
  -5 | 1
N#Cc1cccc(C(=O)Nc2ccc(S(=O)(=O)N3CCCCC3)cc2)c1
  -4 | 33
COc1ccc(-c2nnc(SCc3ccc(C#N)cc3)n2CC(C)C)cc1
  1 | 3
CCn1c(Cn2cc(S(=O)(=O)N3CCCC3)ccc2=O)nc2cc(S(=O)(=O)N(C)C)ccc21
  1 | 8
COc1cc(/C=C/c2ccc(O)cc2)cc(OC)c1
  40 | 38
N#Cc1cccc(CSc2nc(NC3CC3)c3ccccc3n2)c1
  -4 | 10
CN(C)S(=O)(=O)c1ccc(N2CCCC2)c(C(=O)OCc2ccc(F)cc2)c1
  0 | 12
OC(CCN1CCCCC1)(c1ccccc1)C1CCCCC1 (stereo not drawn)
  22 | 12
O=C(N/N=C/c1sc(N2CCCCC2)nc1-c1cccs1)c1ccccc1
  -8 | 17

For convenience, part of the list above.
Fields: BmaI1 counterscreen | BmaI1
COc1cc(/C=C/c2ccc(O)cc2)cc(OC)c1
  40 | 38
N#Cc1cccc(CSc2nc(NC3CC3)c3ccccc3n2)c1
  -4 | 10
CN(C)S(=O)(=O)c1ccc(N2CCCC2)c(C(=O)OCc2ccc(F)cc2)c1
  0 | 12
OC(CCN1CCCCC1)(c1ccccc1)C1CCCCC1 (stereo not drawn)
  22 | 12
O=C(N/N=C/c1sc(N2CCCCC2)nc1-c1cccs1)c1ccccc1
  -8 | 17

Going on with the list.
Fields: BmaI1 counterscreen | BmaI1
Cc1ccc(C(=O)OCC(=O)/C=C2\N(C)c3ccccc3C2(C)C)cc1NC(=O)c1ccco1
  10 | 10
Cc1ccc(N2CC(C(=O)N(C)Cc3c(F)cccc3Cl)CC2=O)cc1 (stereo not drawn)
  2 | 7
CCOC(=O)c1noc(NC(=O)c2ccc(C(F)(F)F)cc2)c1-c1ccccc1
  8 | 14
O=C(Cc1cn2ccsc2n1)OCC(=O)N1CCc2ccccc21
  6 | 14
CC(C)n1ncc2c1N=C(c1cccs1)N(C)C2c1ccccc1 (stereo not drawn)
  6 | 18
CC(=O)NC(C(=O)N1CCN(S(=O)(=O)c2ccc(C)cc2)CC1)C(C)C (stereo not drawn)
  9 | 17
COC(=O)C1=C(C)NC(C)=C(C(=O)OC)C1C(=O)OCc1nc2ccccc2c(=O)n1CC#N
  4 | 14
Cc1sc2nc(CSC(C)C(=O)Nc3nnc(C4CC4)s3)[nH]c(=O)c2c1C (stereo not drawn)
  -2 | 2
CC(=O)O[C@]1(C(C)=O)CC[C@H]2[C@@H]3C=C(C)C4=CC(=O)CC[C@]4(C)[C@H]3CC[C@@]21C
  -8 | -8
CC1(C)C(=O)Nc2ccccc2N1C(=O)CSc1nnc2ccccn12
  6 | 20
Cc1ccc(S(=O)(=O)N2CCC[C@H]2C(=O)N2CCN(Cc3nc4ccccc4s3)CC2)cc1
  4 | 11
Cc1ccc2nc(SC/C(O)=C(\C#N)c3nc4ccccc4[nH]3)[nH]c2c1
  -2 | 12
CC(Nc1ccc(Cl)cc1)C(=O)Nc1ccc(S(N)(=O)=O)cc1 (stereo not drawn)
  9 | 15
Cc1cccc(N2CCN(CC(=O)N(C)Cc3ccccc3)CC2C)c1 (stereo not drawn)
  5 | 10
CCOc1ccc(-c2nc(-c3cc(C)n(CCOC)c3C)cs2)cc1
  5 | 14
Cc1nn(Cc2ccccc2)c(Cl)c1/C=N/NC(=O)c1cccnc1
  20 | 5
CNS(=O)(=O)c1cc(C(=O)Nc2nnc(C3CC3)s2)ccc1Cl
  -10 | 0
COc1ccc(C(=O)O)cc1S(=O)(=O)NC(C)(C)C
  4 | 10
c1cncc(-c2nc(NCc3ccncc3)c3ccccc3n2)c1
  4 | 6
O=C(COn1nnc2ccc(Cl)cc21)Nc1ccccc1
  -2 | 3
CS(=O)(=O)N1Cc2ccccc2CC1C(=O)OCC(=O)N1CC(=O)Nc2ccccc21 (stereo not drawn)
  5 | 12
O=C(COC(=O)/C=C/c1ccco1)Nc1cccc(C(F)(F)F)c1
  -1 | 0
Cc1ccc2c(CSc3nncs3)cc(=O)oc2c1
  11 | 13
O=C(Cn1nnc(-c2cccc(F)c2)n1)N1CCCC1c1ccc2c(c1)OCCO2 (stereo not drawn)
  16 | 16
COC(=O)[C@@H](NS(=O)(=O)c1ccc(Cl)c(Cl)c1)C(C)C
  8 | 10
CN1C(=O)CN=C(c2ccccc2)c2cc([N+](=O)[O-])ccc21
  24 | 12
O=C(CNCC(c1ccc(F)cc1)N1CCOCC1)NCc1ccccc1Cl (stereo not drawn)
  14 | 10
CC(C)N(CCNc1nnnn1-c1ccccc1)C(C)C
  4 | 0
CC(Sc1nc(-c2ccccc2)cs1)C(=O)NC(N)=O (stereo not drawn)
  -4 | -3
CC(C)c1ccc(C(=O)NCCCn2ccnc2)cc1
  -1 | 6
